Compound activity from PubChem BioAssay.
D2 agonist: agonists of human D2 dopamine receptor (beta-arrestin) | P14416 | activation, % (test concentration not listed) | DiscoveRx PathHunter D2 beta-arrestin, luminescence, 90 min; 100% = 57 uM dopamine signal | hit rate 0.084% among 360,000; in the data active = activation above about 40%; inconclusive = about 15% to 40%; inactive = below about 15%; note: compound concentration not given in the record; the text of the record calls up to 30% inactive
Target sequence (P14416 whole entry, looked up): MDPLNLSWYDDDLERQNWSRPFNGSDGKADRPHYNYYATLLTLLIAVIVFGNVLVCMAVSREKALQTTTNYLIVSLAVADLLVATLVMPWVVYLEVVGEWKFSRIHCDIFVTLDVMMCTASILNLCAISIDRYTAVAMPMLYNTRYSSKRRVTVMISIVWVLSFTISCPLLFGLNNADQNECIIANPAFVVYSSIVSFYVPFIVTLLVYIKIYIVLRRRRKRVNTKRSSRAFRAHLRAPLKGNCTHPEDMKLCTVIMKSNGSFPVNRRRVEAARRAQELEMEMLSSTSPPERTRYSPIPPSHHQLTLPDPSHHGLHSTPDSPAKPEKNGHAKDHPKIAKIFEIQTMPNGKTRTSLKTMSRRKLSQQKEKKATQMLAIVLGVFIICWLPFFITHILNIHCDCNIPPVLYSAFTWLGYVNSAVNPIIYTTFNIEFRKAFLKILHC
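Agonist mode: compounds alone added to overnight-plated D2 PathHunter cells for 90 min at 37 C, with 57 uM final dopamine (EC100) defining full response. Beta-arrestin recruitment detected by chemiluminescent reagent, read after 1 h at ambient temperature.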
TRPML1 blocker: blocks the human TRPML1 channel; Q9GZU1; TRPML1-inducible cells, Ca2+ dye fluorescence, FDSS; hits give low values; inhibition of EC80 agonist-evoked calcium signal; activity change, negative = inhibition, % (no concentration beside the values); hit rate 0.02% among 390,000; AID 624415; in the data active means activity change below about -50%; inconclusive means about -30% to -50%; inactive means above about -30%;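 note: stimulus is agonist 54-4 at its EC80 concentration; % is set by controls: 0 for no effect and ±100 for the full control effect; compound concentration not given in the record; the text of the record puts the active cut at -80%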
Target sequence (Q9GZU1 whole entry, looked up): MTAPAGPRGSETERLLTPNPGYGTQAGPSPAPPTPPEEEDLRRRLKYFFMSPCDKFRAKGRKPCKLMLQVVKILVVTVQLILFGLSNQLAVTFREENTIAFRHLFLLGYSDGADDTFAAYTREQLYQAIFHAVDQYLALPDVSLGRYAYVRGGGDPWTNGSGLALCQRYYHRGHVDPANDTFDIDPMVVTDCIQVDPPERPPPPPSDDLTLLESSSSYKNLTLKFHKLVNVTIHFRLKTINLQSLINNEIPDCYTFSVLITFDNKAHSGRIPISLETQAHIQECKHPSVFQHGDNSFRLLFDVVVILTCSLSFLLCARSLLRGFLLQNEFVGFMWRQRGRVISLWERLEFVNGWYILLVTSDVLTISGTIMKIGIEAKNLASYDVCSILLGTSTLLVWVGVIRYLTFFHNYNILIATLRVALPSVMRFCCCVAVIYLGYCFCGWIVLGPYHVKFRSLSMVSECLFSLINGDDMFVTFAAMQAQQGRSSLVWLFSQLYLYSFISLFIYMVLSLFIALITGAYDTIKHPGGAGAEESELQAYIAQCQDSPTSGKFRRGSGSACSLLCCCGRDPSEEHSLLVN
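TRPML1-DL cells, Tet-induced overnight (~16 h, 37 °C) at 1,500 cells/well, were loaded with Ca8 no-wash dye plus quencher for 45-90 min at room temperature. Compounds were pinned during FDSS kinetic reading; agonist 54-4 at EC80 (4 uM final) then added.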
Six1-Eya2 blk: Six1/Eya2 interaction inhibition; AlphaScreen GST-Six1/His-Eya2 binding, biochemical; hits give low values; control for the full effect not named in the record; AID 651725; hit rate 0.56% among 360,000; activity change, % (test concentration not listed); Q15475+O00167; in the data active = activity change below about -65%; inconclusive = about -30% to -65%; inactive = above about -30%; note: % is set by controls: 0 for no effect and ±100 for the full control effect; compound concentration not given in the record
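Six1/Eya2 binding was read as AlphaScreen signal after compounds were pinned into GST-Six1 plus His-tagged Eya2 (5X stock 250/500 nM) in pH 8.0 Tris/NaCl/TCEP buffer, beads added, then incubated 1 h, 37 C, dark.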
CtBP-E1A blk: inhibitors of CtBP/E1A interaction; AlphaScreen GST-E1A/His-CtBP binding, 1536-well; hits give low values; control for the full effect not named in the record; activity change, % (test concentration not listed); hit rate 0.49% among 340,000; AID 651724; in the data active means activity change below about -65%; inconclusive means about -30% to -65%; inactive means above about -30%; note: % is set by controls: 0 for no effect and ±100 for the full control effect; compound concentration not given in the record
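AlphaScreen with 125 nM GST-E1A and 125 nM His-CtBP (5X stocks) in Tris pH 8.0, 300 mM NaCl, BSA, Tween 20, TCEP. Compounds preincubated 2 h at 37 deg C, then glutathione donor/nickel acceptor beads added for 1 h at 37 deg C in dark.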
TRPML1 ag: agonists of human TRPML1 channel; Q9GZU1; activation, % (test concentration not listed); hit rate 0.12% among 410,000; TRPML1-expressing cells, Ca2+ dye fluorescence, FDSS; host cell line not named in the record; reference of the full effect not given here; in the data active = activation above about 50%; inconclusive = about 30% to 50%; inactive = below about 30%; note: 0% is about no effect; the text of the record puts the active cut at 80%
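Kinetic FDSS Ca2+ read in Tet-induced TRPML1-DL cells (ABD Ca8 dye plus quencher, 45-90 min RT loading): baseline, then compound, then 110 s agonist window; EC80 agonist 54-4 at 4uM final added afterwards for a 110 s antagonist window.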
PINK1 expr mod: modulators of PINK1 expression | PINK1 immunofluorescence, high-content cytometry, 24 h | Potency, µM (titrated, usually from 76.6 µM), inactives show at the top dose activation (PINK1 increase), most hits filed as activators | hit rate 0.2% among 410,000 | AID 624263; active = well fitted activation curve with a large enough effect; inconclusive = small, poorly fitted or top-dose-only effect; inactive = flat fitted curve, though single readings scatter; cell line not stated here;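 note: potency is the fitted concentration of half-maximal effect; % of control where 0% means no effect; nearly all actives have a fitted effect of over 65% in size; a mitochondrial uncoupler was the plate control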
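Decision-based qHTS: stable cells, 24 h exposure to five compound concentrations, CCCP as control. Fixed cells stained for PINK1 plus nuclear, mitochondrial and cell markers, cytometer read.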
The depositor's hits bear a star; ? = inconclusive; / = not tested or not shown; [ ] = remark or other dose. Not a hit list. Share with any hit: about 1%.

SMILES	D2 agonist	TRPML1 blocker	Six1-Eya2 blk	CtBP-E1A blk	TRPML1 ag	PINK1 expr mod
CCOc1cc(C(=O)Nc2cc(C)on2)cc(OCC)c1OCC	-0.5	-5.2	5.2	-3.9	0.7	-2.3%
NC(=O)c1cc([N+](=O)[O-])ccc1NCc1cnccn1	-0.8	6.9	0.7	-2.1	-0.3	4.1%
Cc1c(Cl)cccc1NC(=O)c1ccc(NC(=O)N2CCSc3ncccc32)cc1	/	19.9	/	/	2.2	2.2%
COc1ccc(-c2nc(-c3cccnc3)no2)cc1OC	2.4	-4.6	-7.2	3.3	0.9	-0.2%
COc1ccc(N2CCN(Cc3cc(=O)oc4ccc(Cl)cc34)CC2)cc1	-0.1	16.4	1.3	-7.2	0.7	7.3%
Cc1cc(NC(=S)N(CCCN2CCN(C)CC2)Cc2ccco2)ccc1Cl	-7.1	-5.7	-0.1	-10.2	-0.9	1.1%
CCn1c(SCC(=O)NNC(=O)Cc2ccccc2)nnc1-c1ccccc1	1.3	-11.7	-0.1	8.4	0.0	-0.7%[38.3 µM]
Cc1cccc(OCC(=O)NCC(c2cccs2)N2CCOCC2)c1 (configuration not stated)	-0.8	0.8	-1.5	-1.3	-0.4	-2.0%
Cc1ccc2[nH]c(C(=O)N3CCC(C(N)=O)CC3)cc2c1	5.0	-20.1	-3.4	-2.2	0.9	-1.2%
Cc1cccc(CSc2nnc(N)n2-c2ccccc2)c1	-0.7	-6.5	5.3	1.8	-0.7	-0.8%
Cc1cccc2cc(COC(=O)C3CCCCC3)c(=O)[nH]c12	-4.0	-12.9	22.1	0.0	0.8	8.2%
C/C(=N\Nc1ccccn1)c1ccc2c(c1)OCO2	-0.8	2.4	-6.3	-27.2	-0.7	2.8%
COc1ccc(N2CCN(S(=O)(=O)Cc3ccccc3)CC2)cc1	-0.9	-6.3	1.0	0.1	0.1	1.0%[38.3 µM]
O=c1[nH]c(/C=C\c2cccc(F)c2)nc(O)c1[N+](=O)[O-]	-3.9	-12.0	-14.9	5.2	0.0	2.0%
COC(=O)c1c(C)[nH]c(C(=O)COC(=O)c2c(C)noc2C)c1C	-2.9	-5.0	-3.4	-5.4	0.4	-0.2%
COc1ccccc1NC(=O)C(=O)NCC1CCCN1S(=O)(=O)c1cccs1 (configuration not stated)	-1.2	29.7	-3.7	-12.7	-0.7	-2.4%
Cc1cc(=O)n(Cc2ccc(OC(C)C)cc2)c(=S)[nH]1	-3.5	0.0	-2.9	-5.5	-0.6	5.4%
CN(CC(=O)Nc1ccccc1Cl)C(=O)COC(=O)c1ccc(Cl)nc1	-6.2	-13.7	-0.7	-2.8	-0.7	0.6%
O=C(Nc1c(C(=O)N2CCC(N3CCCCC3)CC2)oc2ccccc12)c1ccc(F)cc1	-1.2	3.4	0.3	-2.7	-0.4	1.8%
O=C(O)c1ccccc1C(=O)Nc1nccs1	0.1	-5.2	2.5	-0.2	-0.8	-2.6%
Cn1cnnc1SCC(=O)Nc1ccccc1Oc1ccccc1	2.7	-18.0	1.7	8.8	-0.6	-0.4%
O=C1SC(Nc2ccc(Cl)cc2)C(=O)N1Cc1ccccc1 (configuration not stated)	/	-5.7	/	/	-1.2	-0.2%
COC(=O)c1ccccc1NC(=O)c1sc2nc(C)cc(C)c2c1NC(=O)c1ccccc1Cl	/	7.5	/	/	2.2	3.1%
O=[N+]([O-])c1cc(S(=O)(=O)Nc2ccccc2)ccc1-n1nnc2ccccc21	-4.3	64.8	-16.2	-10.8	-0.2	-2.4%
CCOC(=O)c1nn(-c2ccccc2C)c2nc(Nc3ccccc3)cc(=O)n12	-0.4	3.6	-12.1	-4.6	1.4	12.0%
O=C(Nc1cc(S(=O)(=O)N2CCOCC2)ccc1Cl)c1ccc(=O)[nH]c1	1.5	21.6	5.4	-1.1	0.5	0.3%
CC1CCCCN1C(=O)CSc1nc2cc3c(cc2c(=O)n1Cc1ccc2c(c1)OCO2)OCO3 (configuration not stated)	-1.7	11.3	-2.8	0.9	-0.6	3.6%[38.3 µM]
O=C(NCCN1C(=O)S/C(=C\c2cccnc2)C1=O)c1cc(S(=O)(=O)N2CCOCC2)ccc1F	-4.4	30.1	-3.1	/	-0.6	1.4%
Cn1cccc1C(=O)NC1CCCCC1	-4.0	15.8	-2.6	-1.0	0.4	-2.8%
CSc1cccc(NC(=O)/C=C/c2cccc(Cl)c2)c1	-0.3	-15.8	-0.2	8.6	0.8	?
Cc1ccc(-n2c(N)c(C(=O)N3CCN(C)CC3)sc2=S)cc1	-4.3	-3.5	-2.8	3.5	-0.3	1.2%
O=C(O)C1CCC(CNCc2ccccc2Cl)CC1 (configuration not stated)	-3.2	-4.9	-0.5	0.0	1.2	7.1%
O=C(C1=C[C@H](c2csc3ccccc23)C[C@H](OCc2ccc(CO)cc2)O1)N1CCN(Cc2ccccc2)CC1	1.9	-0.9	-16.6	-6.5	-0.4	0.3%
O=C(Cc1ccccc1)Nc1c[nH]c(=O)[nH]c1=O	-2.8	4.7	-5.6	-2.3	0.3	9.4%
C=CCN(CC=C)CCOc1ccc2ccccc2c1	0.0	23.9	4.0	-11.2	0.4	15.2%
O=C(C1CCC1)N1CCc2cc(S(=O)(=O)N3CCN(c4ccccc4)CC3)ccc21	/	13.7	/	/	-0.2	3.5%
Cc1cc(NNC(=O)c2cccc(C(F)(F)F)c2)nc2c1c(C)nn2C	-5.6	-5.3	6.7	/	-0.8	-0.7%
CCc1ccc2c(CN3CCN(S(=O)(=O)c4ccccc4F)CC3)cc(=O)oc2c1	-0.2	-8.8	12.3	22.7	2.7	-0.2%
COC(=O)[C@]1(C)N[C@H](CN(C)S(=O)(=O)c2ccc(-c3ccccc3)cc2)[C@@H]2C(=O)N(Cc3ccccc3)C(=O)[C@@H]21	-1.5	-14.8	0.4	1.5	-0.9	0.6%
COCCNC(=O)C1(C)CCCN(Cc2cc(-c3ccccc3)on2)C1 (configuration not stated)	-6.5	/	0.7	-1.0	-0.7	1.9%
O=C(C[n+]1ccncc1)c1ccccc1	-6.0	-25.6	-3.7	-12.0	0.0	-0.6%
Cc1cccc(-n2ncc3c(NCCN4CCOCC4)ncnc32)c1	1.7	-6.4	1.0	-8.7	-0.1	1.3%
CCc1c(C)nc(N2CCN(Cc3ccccc3)CC2)[nH]c1=O	-0.8	27.6	5.0	-1.5	-0.1	5.0%
COCc1cc(C)nc(SCC(=O)Nc2ccc3c(c2)OCO3)c1C#N	-0.5	-15.1	1.9	-4.1	-0.8	3.0%
Cc1ccc(C)c(Nc2nn3c(=O)c4ccc(C(=O)NCCc5ccccc5)cc4nc3s2)c1	/	-1.4	/	/	0.1	-2.0%
OCC1OC(n2cnc3c(/C=C(\O)c4ccccc4)ncnc32)C(O)C1O (configuration not stated)	-1.3	24.8	-10.1	0.0	0.0	1.2%
CCc1ccc(C(=O)Nc2nc(C)cs2)s1	-3.3	-0.4	22.8	0.0	3.5	4.4%
CCOc1ccc(OCC(=O)Nc2cc(Cl)ccc2-n2cncn2)cc1	0.2	6.0	2.2	2.5	0.1	3.6%
CCOC(=O)c1sc(NC(=O)/C=C/c2c(F)cccc2Cl)nc1C	-2.2	14.1	-5.9	-0.5	-0.6	3.8%
COC(=O)C1=C(C)NC(=S)NC1c1ccc(OCC(=O)N2CCCCC2)c(OC)c1 (configuration not stated)	-0.7	10.7	-3.3	9.6	-0.3	0.8%
CC(C)NC(=S)NNC(=O)C12CC3CC(CC(C3)C1)C2	0.4	8.4	-10.8	-7.2	0.3	8.0%[38.3 µM]
CCOC(=O)c1c(NC(=O)COc2ccc(CC)cc2)sc2c1CCCC2	/	20.5	/	/	1.5	-0.9%
Cc1cccc(N2CCN(CCCNC(=O)c3sc4ncccc4c3-n3cccc3)CC2C)c1 (configuration not stated)	/	-4.6	/	/	1.0	1.1%
COc1cc(-c2noc(C)n2)cc(OC)c1OC	-7.3	0.3	-13.3	-0.6	-0.4	2.0%
CN(C)C(CNC(=S)Nc1ccccc1Cl)c1cccnc1 (configuration not stated)	-3.9	53.2	9.4	4.0	0.2	0.7%
CC(=O)C(=Cc1cc(C)n(-c2ccccc2)c1C)C(C)=O	-1.1	3.9	-10.7	-5.0	0.8	3.4%
C/C(=N\Nc1cccc2cccnc12)c1ccc[nH]1	-0.8	-3.7	-26.2	-18.1	-0.1	5.4%
COc1cccc2cc(C(=O)NCCC3=CCCCC3)c(=O)oc12	-3.3	25.8	13.4	6.9	1.3	-0.9%
O=C(CCCN1CCOCC1)c1ccc2c(c1)OCCO2	1.2	-10.5	0.5	9.6	-0.2	/
CC(C)(C)n1nnnc1C(c1cc2ccccc2o1)N(Cc1ccccc1)Cc1ccccc1 (configuration not stated)	/	/	0.4	-2.0	0.5	3.9%

Next records follow.
SMILES	D2 agonist	TRPML1 blocker	Six1-Eya2 blk	CtBP-E1A blk	TRPML1 ag	PINK1 expr mod
CC(C)c1ccc(C(C(=O)NC2CCCCC2)N(C(=O)c2ccccn2)c2cccnc2)cc1 (configuration not stated)	0.3	17.4	-0.9	6.1	2.0	-0.2%
COc1ccc(C(=O)NCCc2sc(-c3ccc(F)cc3)nc2C)cc1OC	/	0.6	/	/	0.0	-0.7%
CCOc1ccc(CN2CCNC(=O)C2CC(=O)NCCc2ccccn2)cc1 (configuration not stated)	-2.7	-8.7	-0.5	0.0	0.6	0.3%
COc1ccc(C(O)c2nccn2C)cc1 (configuration not stated)	0.3	-2.8	-10.3	-17.7	0.7	-3.8%[38.3 µM]
Cc1cc(C)c2c(N)c(C(=O)Nc3c(C)n(C)n(-c4ccccc4)c3=O)sc2n1	-3.0	5.1	5.1	-14.0	1.7	-0.5%
CCCCNS(=O)(=O)c1cc(-c2nn(C)c(=O)c3ccccc23)ccc1C	6.1	15.6	-9.1	-13.1	2.0	6.9%
CS(=O)(=O)N(Cc1ccc(C(=O)NCCSCc2ccco2)cc1)c1ccccc1	0.4	30.3	-2.8	-11.9	0.5	-5.5%[38.3 µM]
O=C(Nc1cccnc1)c1cc2c(s1)-c1ccccc1OC2	9.6	-13.5	23.8	/	-0.3	-0.2%
C=CCNC(=S)/N=c1/ccccn1C	-0.7	4.0	0.8	9.6	-0.5	2.8%
Cc1ccc(-c2nc3n(n2)C(c2ccccc2C)C=C(c2ccc(Cl)cc2)N3)cc1 (configuration not stated)	/	5.6	/	/	0.5	5.9%
CN(C)c1nc(NCc2ccccc2)nc(SCC(N)=O)n1	2.8	11.8	1.5	7.0	0.2	-1.5%
Cc1ccc(C2=NC(=O)/C(=C/c3cc(O)c(O)c(Br)c3)S2)cc1	-1.7	40.6	-29.7	?	3.3	0.5%
C=CCNc1nc(-c2c(C)nc3ncccn23)cs1	5.1	18.6	-17.4	-14.6	-0.1	0.2%
